High-throughput results from PubChem.
Vaccinia stage: blocks a specific stage of Vaccinia orthopoxvirus infection | 89,000 tested, 0.01% active | activity change (mCherry), % (no concentration beside the values) | Vaccinia-infected cells, mCherry/Venus stage reporter fluorescence; hits give low values; some inactives read as strong as hits;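 active = mCherry past -33% and 40 or more points under the early reporter, replicates agreeing; inconclusive = past -33% without that gap or agreement; tested in A549 cells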;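 note: scaled between vehicle wells and reference inhibitor wells; 23 nL library stock went into each well; one replicate is shown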
Vaccinia stage Venus: recorded beside Vaccinia stage, whose call it bears; activity change (Venus), %; measured here: Venus reporter, other viral stage;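 negative = less Venus signal; first of two replicates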
* marks the source's active call; other numbers are inactive results; ? = inconclusive; / = not tested or not shown; & = joins results of further samples. This is a subset (hit frequency here may not be typical).

smiles	Vaccinia stage	Vaccinia stage Venus
CCNC(=O)[C@@H]1[C@@H](CO)[C@@H]2Cn3c(ccc(C4=CCCC4)c3=O)[C@H]1N2C(=O)CC	7	8
C[C@@H]1CN([C@@H](C)CO)C(=O)c2cc(NS(=O)(=O)c3cccs3)ccc2O[C@@H]1CN(C)S(=O)(=O)c1cn(C)cn1	8	2
COc1ccc(S(=O)(=O)N(C)C[C@H]2Oc3ccc(NC(=O)Cc4ccccc4)cc3CC(=O)N([C@@H](C)CO)C[C@H]2C)cc1	-2	-7
COc1ccc(NC(=O)Nc2ccc3c(c2)C(=O)N([C@@H](C)CO)C[C@@H](C)[C@H](CN(C)C(=O)Nc2ccc(OC)cc2)O3)cc1	17	14
COc1cccc(-c2ccc3c(c2)O[C@@H](CN(C)Cc2ccncc2)[C@@H](C)CN([C@H](C)CO)S3(=O)=O)c1	-32	-19
C[C@@H]1CN([C@@H](C)CO)C(=O)Cc2cc(NC(=O)Cc3cn(C)c4ccccc34)ccc2O[C@H]1CN(C)Cc1ccc(Cl)c(Cl)c1	?	/
C[C@H](CO)N1C[C@H](C)[C@H](CN(C)C(=O)Nc2ccc3c(c2)OCO3)Oc2c(NC(=O)c3cnccn3)cccc2C1=O	0	1
CNC[C@@H]1Oc2cc(C#Cc3cccnc3)ccc2S(=O)(=O)N([C@H](C)CO)C[C@H]1C	1	-3
CCCNC(=O)Nc1ccc2c(c1)C(=O)N(C)C[C@@H](OC)[C@H](C)CN(C(=O)C1CCOCC1)[C@H](C)CO2	5	-2
CC(C)NC(=O)N(C)C[C@@H]1Oc2ccc(NC(=O)Nc3ccc(C(F)(F)F)cc3)cc2C(=O)N([C@H](C)CO)C[C@@H]1C	11	5
O=C(c1cccnc1)N1C[C@H]2[C@@H](c3ccccc31)[C@H](CO)N2C(=O)C1CC1	23	17
C/C=C/c1cnc2c(c1)C(=O)N([C@@H](C)CO)C[C@H](C)[C@@H](CN(C)C(=O)CN1CCOCC1)O2	4	8
N#C[C@@H]1[C@@H](c2ccccc2-c2ccccc2F)[C@@H](CO)N1C(=O)C1CC1	2	4
C[C@@H]1CN([C@H](C)CO)S(=O)(=O)c2ccc(-c3cccc(C#N)c3)cc2O[C@H]1CN(C)Cc1cccc(F)c1	?	/
CCOC(=O)[C@@H]1[C@@H]2NC(=O)N(C)[C@@]1(C)Oc1ccccc12	1	2
CCC(=O)N1CC2(C1)[C@H](c1ccccc1)[C@H](CO)N2CC1CCOCC1	16	22
Cc1noc(C)c1S(=O)(=O)Nc1ccc2c(c1)C(=O)N([C@@H](C)CO)C[C@H](C)[C@@H](CN(C)C(=O)C1CCCCC1)OCCCC[C@H](C)O2	-24	-24
COCC#Cc1cnc2c(c1)C(=O)N([C@H](C)CO)C[C@@H](C)[C@H](CN(C)C(=O)Nc1ccccc1F)O2	9	-3
Cc1ccc(-c2cnc3c(c2)C(=O)N([C@H](C)CO)C[C@H](C)[C@H](CN(C)C(=O)c2ccncc2)O3)cc1	8	7
CCCNC(=O)N1CC2(C1)[C@@H](c1ccccc1)[C@@H](CO)N2C(=O)C1CCCCC1	13	12
O=C(C[C@@H]1C[C@@H]2c3cc(NC(=O)Cc4ccncc4)ccc3O[C@@H]2[C@@H](CO)O1)NCC1CC1	9	14
Cc1ccc(CN(C)C[C@@H]2OCc3cn(nn3)CCCC(=O)N([C@H](C)CO)C[C@@H]2C)cc1	10	9
COc1ccc(C#Cc2ccc([C@H]3[C@H]4CN(C(=O)Cc5ccccc5)CCCCN4[C@H]3CO)cc2)cc1	-29	-28
C[C@@H]1CN([C@H](C)CO)C(=O)c2cc(C3=CCCCC3)cnc2O[C@@H]1CN(C)C(=O)NC1CCCC1	-8	-8
C[C@@H]1CN([C@@H](C)CO)C(=O)c2cccc(NC(=O)c3cnccn3)c2O[C@@H]1CN(C)S(=O)(=O)c1ccc(F)cc1	10	4

Overlap with the part before: 4 compounds, then new ones.
smiles	Vaccinia stage	Vaccinia stage Venus
Cc1ccc(CN(C)C[C@@H]2OCc3cn(nn3)CCCC(=O)N([C@H](C)CO)C[C@@H]2C)cc1	10	9
COc1ccc(C#Cc2ccc([C@H]3[C@H]4CN(C(=O)Cc5ccccc5)CCCCN4[C@H]3CO)cc2)cc1	-29	-28
C[C@@H]1CN([C@H](C)CO)C(=O)c2cc(C3=CCCCC3)cnc2O[C@@H]1CN(C)C(=O)NC1CCCC1	-8	-8
C[C@@H]1CN([C@@H](C)CO)C(=O)c2cccc(NC(=O)c3cnccn3)c2O[C@@H]1CN(C)S(=O)(=O)c1ccc(F)cc1	10	4
N#C[C@@H]1N[C@@H](CO)[C@@H]1c1ccc(C#Cc2ccccc2F)cc1	1	5
C[C@@H]1CN([C@H](C)CO)C(=O)Cc2cc(NS(=O)(=O)c3ccccc3)ccc2O[C@H]1CN(C)Cc1ccc(C(F)(F)F)cc1	?	/
COc1cccc(NC(=O)N[C@@H]2C=C[C@H](CC(=O)Nc3ccccc3)O[C@@H]2CO)c1	7	1
CC(=O)N(C)C[C@H]1Oc2ncc(C3=CCCC3)cc2C(=O)N([C@H](C)CO)C[C@@H]1C	-1	-1
C[C@@H]1CN([C@@H](C)CO)S(=O)(=O)c2ccc(-c3cncnc3)cc2O[C@@H]1CN(C)Cc1ccccc1	-6	-13
CCC(=O)N[C@@H]1CC[C@@H](CC(=O)NCCN2CCCCC2)O[C@@H]1CO	-5	-6
C[C@@H]1CCCCO[C@H](CN(C)C(=O)Cc2ccccc2)[C@H](C)CN([C@@H](C)CO)C(=O)c2cc(NS(=O)(=O)c3ccccc3)ccc2O1	-34	-31
C[C@H](CO)N1C[C@H](C)[C@@H](CN(C)Cc2ccc(Cl)c(Cl)c2)OCCCC[C@H](C)Oc2ccc(NC(=O)Cc3ccccc3)cc2C1=O	?	/
CO[C@@H]1CN(C)C(=O)c2cc(NC(=O)c3ccc(-c4ccccc4)cc3)ccc2OC[C@H](C)NC[C@@H]1C	?	/
O=C(Cc1ccncc1)NCC[C@H]1CC[C@@H](NC(=O)Nc2cccc(F)c2)[C@@H](CO)O1	9	16
COc1ccc(NC(=O)Nc2ccc3c(c2)CC(=O)N([C@@H](C)CO)C[C@H](C)[C@H](CN(C)C(=O)Nc2ccccc2)O3)cc1	24	18
CCC(=O)Nc1ccc2c(c1)C(=O)N(C)C[C@H](OC)[C@H](C)CN(Cc1ccccn1)[C@@H](C)CO2	-5	3
C[C@@H]1CN([C@@H](C)CO)C(=O)Cc2cc(NC(=O)Nc3ccc(C(F)(F)F)cc3)ccc2O[C@H]1CN(C)Cc1ccc(Cl)c(Cl)c1	-23	-10
O=C1CN(S(=O)(=O)c2ccccc2)C[C@@H]2[C@@H](c3ccc(C#CCc4ccccc4)cc3)[C@@H](CO)N12	-26	-22
COc1ccc(NC(=O)N(C)C[C@@H]2Oc3ccc(NC(=O)NC(C)C)cc3CC(=O)N([C@H](C)CO)C[C@@H]2C)cc1	4	10
O=C(CN1CCOCC1)NCC[C@H]1CC[C@H](NC(=O)Cc2ccccn2)[C@H](CO)O1	0	8
Cc1ccccc1-c1ccc([C@H]2[C@H]3CN(S(C)(=O)=O)CCCCN3[C@H]2CO)cc1	0	-9
COc1ccc(NC(=O)Nc2cccc3c2O[C@H](CN(C)C(=O)Nc2ccc4c(c2)OCO4)[C@H](C)CN([C@@H](C)CO)C3=O)cc1	-1	0
COCC(=O)N(C)C[C@@H]1Oc2cc(-c3cccc(F)c3)ccc2S(=O)(=O)N([C@H](C)CO)C[C@@H]1C	6	10
C[C@@H]1CCCCO[C@@H](CN(C)C(=O)Nc2ccc(F)cc2)[C@H](C)CN([C@H](C)CO)C(=O)c2cc(NC(=O)Nc3ccc(F)cc3)ccc2O1	-17	-26
Cc1ccc(S(=O)(=O)N(C)C[C@@H]2OCCCC[C@@H](C)Oc3ccc(NC(=O)Nc4ccc(F)cc4)cc3C(=O)N([C@@H](C)CO)C[C@@H]2C)cc1	16	4
CS(=O)(=O)Nc1ccc2c(c1)[C@H]1C[C@@H](CC(=O)NC3CCCC3)O[C@H](CO)[C@H]1O2	8	11
COc1ccc(NC(=O)N(C)C[C@H]2OCc3cn(nn3)CCCC(=O)N([C@@H](C)CO)C[C@@H]2C)cc1	6&17	7&9
COc1ccc(S(=O)(=O)N(C)C[C@H]2OCCCC[C@@H](C)Oc3ccc(NC(=O)Nc4ccc5c(c4)OCO5)cc3C(=O)N([C@@H](C)CO)C[C@H]2C)cc1	5	-3
C[C@H]1CN([C@@H](C)CO)C(=O)c2cccc(NC(=O)c3ccc(-c4nccs4)cc3)c2O[C@H]1CN(C)S(=O)(=O)c1cn(C)cn1	25	8

Copied from the list:
C[C@@H]1CN([C@@H](C)CO)C(=O)Cc2cc(NC(=O)Nc3ccc(C(F)(F)F)cc3)ccc2O[C@H]1CN(C)Cc1ccc(Cl)c(Cl)c1 – Vaccinia stage Venus: -10
O=C1CN(S(=O)(=O)c2ccccc2)C[C@@H]2[C@@H](c3ccc(C#CCc4ccccc4)cc3)[C@@H](CO)N12 – Vaccinia stage Venus: -22
COc1ccc(NC(=O)Nc2ccc3c(c2)CC(=O)N([C@@H](C)CO)C[C@H](C)[C@H](CN(C)C(=O)Nc2ccccc2)O3)cc1 – Vaccinia stage Venus: 18
COc1ccc(NC(=O)N(C)C[C@@H]2Oc3ccc(NC(=O)NC(C)C)cc3CC(=O)N([C@H](C)CO)C[C@@H]2C)cc1 – Vaccinia stage: 4

Remaining list, next part:
smiles	Vaccinia stage	Vaccinia stage Venus
COc1ccc2c3c([nH]c2c1)[C@H](CO)N(C(=O)C1CCCCC1)CC31CCN(Cc2nccs2)CC1	-19	-19
C[C@H]1CN([C@@H](C)CO)C(=O)Cc2cc(NS(=O)(=O)c3cn(C)cn3)ccc2O[C@H]1CN(C)C	8	8
COCC#Cc1ccc([C@@H]2[C@H]3CN(C(=O)C4CCCCC4)CC(=O)N3[C@H]2CO)cc1	14	8
O=C(O)C[C@@H]1C[C@H]2c3cc(NC(=O)Nc4ccc(F)cc4)ccc3O[C@H]2[C@@H](CO)O1	12	9
C[C@H]1CN([C@@H](C)CO)C(=O)Cc2cc(NS(=O)(=O)c3ccc(Cl)cc3)ccc2O[C@@H]1CN(C)S(=O)(=O)c1cccs1	12	9
Cc1ccc(S(=O)(=O)N(C)C[C@@H]2OCCCC[C@H](C)Oc3ccc(NC(=O)CCC(F)(F)F)cc3C(=O)N([C@@H](C)CO)C[C@H]2C)cc1	?	/
C[C@@H]1CN([C@@H](C)CO)C(=O)c2cc(NC(=O)Cn3cnnn3)ccc2O[C@@H]1CN(C)C(=O)NC1CCCCC1	3	-9
C=CCNC(=O)[C@@H]1[C@H]2C(=O)O[C@H](c3ccccc3)[C@H](c3ccccc3)N2[C@H](c2ccc(OCCO)cc2)[C@@]12C(=O)Nc1ccc(C#CCNC(N)=O)cc12	13	12
C[C@H]1CCCCO[C@H](CN(C)CC2CCCCC2)[C@@H](C)CN([C@@H](C)CO)C(=O)c2cc(NS(=O)(=O)c3ccc(F)cc3)ccc2O1	?	/
O=C(C1CCC1)N1CC2(C1)[C@@H](c1ccccc1)[C@@H](CO)N2C(=O)c1cccnc1	11	15
O=C(Cc1ccncc1)Nc1ccc2c(c1)[C@@H]1C[C@H](CC(=O)NC3CCCCC3)O[C@H](CO)[C@@H]1O2	5	12
CO[C@H]1CN(C)C(=O)c2cc(NC(=O)Nc3cc(F)ccc3F)ccc2OC[C@H](C)N(C)C[C@@H]1C	-13	-1
COc1ccc([Si](C)(C)[C@@H]2[C@@H](CCO)O[C@]3(C(=O)N(Cc4ccccc4)c4ccc(N5CCCCC5=O)cc43)[C@H]2C)cc1	?	/
COCC(=O)N1CC2(CN(Cc3ccc(OC)cc3)C2)c2c([nH]c3cc(OC)ccc23)[C@@H]1CO	13	2
Cc1ccc(-c2ccc([C@@H]3[C@H](CO)N4CCCCN(S(=O)(=O)c5ccccc5C)C[C@@H]34)cc2)cc1	?	/
COCC(=O)N[C@H]1CC[C@@H](CC(=O)NCc2ccccc2OC)O[C@@H]1CO	3	5
CCNC(=O)[C@@H]1[C@@H](CO)[C@@H]2Cn3c(ccc(/C=C/c4ccccc4)c3=O)[C@H]1N2C(=O)C1CCC1	4	0
O=C(c1ccccc1F)N1C[C@@H]2[C@H](c3ccccc31)[C@@H](CO)N2C(=O)c1ccc(F)cc1	13	17
C[C@@H]1CCCCO[C@@H](CN(C)C(=O)Nc2ccc3c(c2)OCO3)[C@@H](C)CN([C@H](C)CO)C(=O)c2cc(NC(=O)C3CCCCC3)ccc2O1	4	1
CNC[C@@H]1Oc2ccc(NS(=O)(=O)c3ccccc3)cc2CC(=O)N([C@H](C)CO)C[C@H]1C	14	11
C[C@@H]1CN([C@@H](C)CO)C(=O)Cc2cc(NS(=O)(=O)c3cn(C)cn3)ccc2O[C@@H]1CN(C)C(=O)Nc1ccc(F)cc1	-2	4
O=C(C[C@@H]1C=C[C@@H](NC(=O)C2CC2)[C@@H](CO)O1)NCC1CC1	-1	3
C[C@H](NC(=O)C[C@@H]1CC[C@H](NC(=O)Cc2ccccn2)[C@H](CO)O1)c1ccccc1	14	15
O=C(C[C@H]1C=C[C@@H](NC(=O)NC2CCCCC2)[C@H](CO)O1)NCc1ccc(F)cc1	-1	6
CN(C)C(=O)[C@H]1[C@H](CO)[C@H]2Cn3c(ccc(-c4cccc(F)c4)c3=O)[C@@H]1N2CCc1ccccc1	1	5
